Screening data as filed in PubChem BioAssay.
Methyltransferases: Primary Screen for Target Class Profiling of Small Molecule Inhibitors of Methyltransferases; purified enzyme, MTase-Glo SAH luminescence; hits give low values; 25,000 tested, 3.9% active; calls only at 40 µM; active = -50% or lower on at least one of six enzymes; inconclusive = the cases between; inactive = as a rule above -30% on all six;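 also: enzymes were COMT GAMT GNMT HNMT NNMT and PNMT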
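Each enzyme was reacted with SAM and its substrate, with compounds tested once at 40 uM; SAH formed was read by MTase-Glo luminescence.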
Calls only; i = inactive; u = inconclusive; + = active, no number. % is scaled to controls: 0 for no effect and ±100 for the full control effect.

SMILES	Methyltransferases
CCc1ccc(C2c3cccn3-c3ccccc3CN2C(=O)Nc2ccc(Br)cc2)cc1 (centres undefined)	i
C[C@@H]1O[C@@H](O[C@H]2CC[C@@]3(C)C(CC[C@@H]4C3CC[C@]3(C)[C@@H](C5=CC(=O)OC5)CC[C@]43O)C2)[C@H](O)[C@H](O)[C@H]1O (some centres undefined)	i
CCOc1ccc(C2c3cccn3-c3ccccc3CN2C(=O)Nc2cc(C)ccc2OC)cc1 (centres undefined)	i
COc1ccc(-c2cc([C@H]3CN4CC[C@H]3C[C@@H]4COC(=O)Nc3ccccc3)n(C)n2)cc1	u
CNCC(O)c1ccc(O)cc1 (centres undefined)	i
CCOc1ccc(C2c3cccn3-c3ccccc3CN2C(=O)Nc2ccccc2OCC)cc1 (centres undefined)	i
O=C(O)COCC(=O)N1C[C@@H]2C[C@H](C1)c1ccc(-c3cc4ccccc4s3)c(=O)n1C2	i
Cc1cnc(N2CC3CCC(C2)N3CC(F)(F)F)c([N+](=O)[O-])c1	i
CCOC(=O)c1ccc(NC(=O)N2Cc3ccccc3-n3cccc3C2c2ccccc2Cl)cc1 (centres undefined)	i
CN1C(=O)[C@H]2CN(Cc3ccsc3)C[C@H]2C1=O	i
CCCCCN(C)CCC(O)(P(=O)(O)O)P(=O)(O)O	i
CC1c2cccn2-c2ccccc2CN1C(=O)Nc1ccccc1C(F)(F)F (centres undefined)	i
COCc1cn(C[C@H]2C[C@@H]3CCN2C[C@@H]3C(=O)NCc2ccco2)nn1	i
COc1ccc(C)cc1NC(=O)N1Cc2ccccc2-n2cccc2C1c1ccccc1 (centres undefined)	i
CN1CCCCC1Cn1cc(C(=O)c2cc([N+](=O)[O-])ccc2I)c2ccccc21 (centres undefined)	u
CN(C)c1ccc(C2c3cccn3-c3ccccc3CN2C(=O)NCc2ccccc2)cc1 (centres undefined)	i
Cc1ccc(NC(=O)N2Cc3ccccc3-n3cccc3C2C(C)C)c(C)c1 (centres undefined)	i
CCOc1ccccc1NC(=O)N1Cc2ccccc2-n2cccc2C1CC (centres undefined)	i
CCOC(=O)c1ccc(NC(=O)N2Cc3ccccc3-n3cccc3C2c2cccc(Cl)c2)cc1 (centres undefined)	i
CC(CCc1ccccc1)NC(C)C(O)c1ccc(O)cc1 (centres undefined)	i

Retrieved by compound from the entries so far:
SMILES	Methyltransferases
CN1C(=O)[C@H]2CN(Cc3ccsc3)C[C@H]2C1=O	i
COCc1cn(C[C@H]2C[C@@H]3CCN2C[C@@H]3C(=O)NCc2ccco2)nn1	i

The results go on:
SMILES	Methyltransferases
O=[S+]([O-])(C1CC1)N1C2CCC1CN(Cc1cccnc1)C2	i
O=C(Nc1ccccc1F)N1Cc2ccccc2-n2cccc2C1c1cccc(Cl)c1 (centres undefined)	i
Cn1nc(C2CCCCC2)cc1[C@H]1CN2CC[C@H]1C[C@@H]2CNC(=O)NCc1ccccc1	i
COC(=O)c1cccc(NC(=O)N2Cc3ccccc3-n3cccc3C2c2ccc(Cl)cc2)c1 (centres undefined)	i
CCOC(=O)c1ccnc2cc(C(OCCN3CCCCC3)c3ccccc3Cl)sc12 (centres undefined)	u
Cc1ccc(NC(=O)N2Cc3ccccc3-n3cccc3C2c2cccc(Cl)c2)cc1C (centres undefined)	i
COc1ccc(NC(=O)N2Cc3ccccc3-n3cccc3C2c2ccccc2Cl)cc1OC (centres undefined)	i
CC(=O)OC[C@]12C[C@H](OC(=O)CC(C)C)C(C)=C[C@H]1O[C@@H]1[C@H](O)[C@@H](OC(C)=O)[C@@]2(C)[C@@]12CO2	i
Clc1cc(I)cc(Cl)c1NC1=NCCN1	i
CCOc1ccc(C2c3cccn3-c3ccccc3CN2C(=O)Nc2ccc(F)c(Cl)c2)cc1 (centres undefined)	i
CCc1ccc(C2c3cccn3-c3ccccc3CN2C(=O)Nc2ccc(F)c(Cl)c2)cc1 (centres undefined)	i
CCOc1ccc(C2c3cccn3-c3ccccc3CN2C(=O)NCc2ccc(F)cc2)cc1 (centres undefined)	i
CSc1ccc(C2c3cccn3-c3ccccc3CN2C(=O)Nc2cc(Cl)ccc2C)cc1 (centres undefined)	i
CC(C)CCNC(=O)N1Cc2ccccc2-n2cccc2C1c1ccc(Cl)cc1 (centres undefined)	i
NNC(N)=O	i
CCOCCCNC(=O)N1Cc2ccccc2-n2cccc2C1c1ccc(Cl)cc1 (centres undefined)	i
CC(C)C1c2cccn2-c2ccccc2CN1C(=O)Nc1ccc(Br)cc1F (centres undefined)	i
c1ccc(C2(c3ccccc3)OC[C@@H]([C@H]3CCCCN3)O2)cc1	i
COc1ccc(NC(=O)N2Cc3ccccc3-n3cccc3C2c2ccc(SC)cc2)cc1 (centres undefined)	i
O=C(Nc1ccc(=O)n2c1[C@@H]1C[C@@H](CN(C(=O)NC3CCCCC3)C1)C2)c1ccco1	i
CCOC(=O)Cc1ccc(NC(=O)N2Cc3ccccc3-n3cccc3C2C)cc1 (centres undefined)	i
O=C(Nc1ccccc1F)N1Cc2ccccc2-n2cccc2C1c1ccccc1 (centres undefined)	i
CCc1ccccc1NC(=O)N1Cc2ccccc2-n2cccc2C1c1cccs1 (centres undefined)	i
CC1=CC(=O)[C@@H](O)[C@]2(C)C3[C@@H](O)[C@@H]4OC(=O)[C@@H]([C@H]4C)[C@]3(C)C(=O)[C@H](O)[C@@H]12 (some centres undefined)	i
CCOc1ccc(C2c3cccn3-c3ccccc3CN2C(=O)Nc2ccccc2C(=O)OC)cc1 (centres undefined)	i
CCOC(=O)c1cccc(NC(=O)N2Cc3ccccc3-n3cccc3C2CC)c1 (centres undefined)	i
O=C([C@H]1CN2CCC1C[C@@H]2Cn1cc(CCO)nn1)N1CCOCC1 (some centres undefined)	i
O=C(Nc1ccccc1)Nc1ccc2n(c1=O)C[C@H]1C[C@@H]2CN(C(=O)c2ccccc2)C1	i
CNc1ccc2oc(C[C@H]3O[C@@]4(CC[C@H]3C)O[C@H](C(C)C(=O)c3ccc[nH]3)[C@H](C)C[C@H]4C)nc2c1C(=O)O (some centres undefined)	u
Cc1cccc(C2c3cccn3-c3ccccc3CN2C(=O)Nc2ccc(Br)cc2)c1 (centres undefined)	i
CCC1(C2=NCCN2)Cc2ccccc2O1 (centres undefined)	i
COC(=O)c1ccccc1NC(=O)N1Cc2ccccc2-n2cccc2C1c1ccc(SC)cc1 (centres undefined)	i
N#Cc1cncc(N2CC3CCC(C2)N3CC(F)(F)F)c1	i
Cc1ccc(NC(=O)N2C[C@@H]3C[C@H](C2)c2c(-c4cccs4)ccc(=O)n2C3)cc1	i
CCCN1CC[C@@H]2c3cc(O)ccc3CC[C@@H]21	+
C1=C2CCCN[C@H]2[C@@H]2C[C@H]1[C@H]1CCCCN1C2	i
Cc1c(N2C(=O)[C@@H]3[C@H](O)CCN3C2=O)ccc(C#N)c1Cl	i
CCCn1c(=O)c2[nH]c(C3CCCC3)nc2n(CCCOC(=O)c2ccc(S(=O)(=O)F)cc2)c1=O	i
Cc1ccc(NC(=O)N2Cc3ccccc3-n3cccc3C2c2cccs2)cc1F (centres undefined)	i
COc1cc2c(cc1OCc1ccncc1)NC(=O)C21CCN(Cc2ccccc2)CC1	u
C[N+]1(C)CCc2cc3c(cc2[C@H]1[C@@H]1OC(=O)c2c1ccc1c2OCO1)OCO3	i
CC(N)[C@H](O)c1ccc(O)c(O)c1 (some centres undefined)	i
CN1CC[C@@]2(C)c3cc(O)ccc3N(C)C12 (some centres undefined)	+
N=C(N)c1ccc(CS(=O)(=O)F)cc1	i
CC1c2cccn2-c2ccccc2CN1C(=O)NCc1ccco1 (centres undefined)	i
CCc1ccc(NC(=O)N2Cc3ccccc3-n3cccc3C2c2ccccc2C)cc1 (centres undefined)	i
Cc1ccccc1-c1ccc2n(c1=O)C[C@H]1C[C@@H]2CN(C(=O)NC2CCCCC2)C1	i
CCOc1ccc(NC(=O)N2Cc3ccccc3-n3cccc3C2c2ccc(F)cc2)cc1 (centres undefined)	i
C[C@@H]1CN(Cc2ccc(F)cc2)CCN1C(=O)COc1ccc(Cl)cc1NC(N)=O	i
O=C(NCc1ccc(F)cc1)[C@H]1CN2CCC1C[C@@H]2Cn1cc(CSc2ccccc2)nn1 (some centres undefined)	i
COc1ccc(C2c3cccn3-c3ccccc3CN2C(=O)Nc2cccc(OC)c2)cc1 (centres undefined)	i
COc1cc(NC(=O)N2Cc3ccccc3-n3cccc3C2c2ccc(C)cc2)cc(OC)c1 (centres undefined)	i
CC12NC(Cc3ccccc31)c1ccccc12 (centres undefined)	i
CCN1C[C@@]2(COC)C3[C@@H](OC)C4[C@@H]1C3([C@@H]1C[C@]3(O)[C@H](OC(=O)c5ccccc5)[C@@H]1[C@]4(OC(C)=O)[C@@H](O)[C@@H]3OC)[C@H](OC)C[C@H]2O	i
CSc1ccc(C2c3cccn3-c3ccccc3CN2C(=O)Nc2ccccc2)cc1 (centres undefined)	i
O=C(Nc1ccc2c(c1)OCCO2)N1Cc2ccccc2-n2cccc2C1c1ccc(Cl)cc1 (centres undefined)	i
Cc1cccc(C2c3cccn3-c3ccccc3CN2C(=O)Nc2ccc(F)cc2)c1 (centres undefined)	i
O=C(NCCN1CCC2(CC1)C(=O)NCN2c1cccc(F)c1)c1ccc(F)c(F)c1	u
COC1CC(O[C@H]2CC[C@]3(C=O)C4CC[C@]5(C)[C@@H](C6=CC(=O)OC6)CC[C@]5(O)[C@@H]4CC[C@@H]3C2)OC(C)C1O[C@@H]1O[C@H](CO)[C@@H](O[C@@H]2O[C@H](CO)[C@@H](O)[C@H](O)[C@H]2O)[C@H](O)[C@H]1O (some centres undefined)	i
COC1CC(O[C@H]2CC[C@@]3(C)C(CCC4C3CC[C@]3(C)C(C5=CC(=O)OC5)CCC43O)C2)OC(C)C1OC1OC(COC2OC(CO)C(O)C(O)C2O)C(O)C(O)C1O (some centres undefined)	i
Next compounds.
SMILES	Methyltransferases
Cc1cccc(C2c3cccn3-c3ccccc3CN2C(=O)NC2CCCC2)c1 (centres undefined)	i
CN(C)c1ccc(C2c3cccn3-c3ccccc3CN2C(=O)Nc2cc(F)ccc2F)cc1 (centres undefined)	i
CC(=O)OC[C@]12C[C@H](O)C(C)=C[C@H]1O[C@@H]1[C@H](O)[C@@H](OC(C)=O)[C@@]2(C)[C@]12CO2	i
NC(=O)c1ccc(-c2cccc3c2CCNC3)s1	u
C[C@]12CC[C@H](OC3OC(CO)C(O)C(O)C3OC3OC(CO)C(O)C(O)C3O)C[C@@H]1CC[C@@H]1C2CC[C@]2(C)[C@@H](C3=CC(=O)OC3)CC[C@]12O (some centres undefined)	i
Cc1cccc(C2c3cccn3-c3ccccc3CN2C(=O)Nc2ccccc2F)c1 (centres undefined)	i
C[C@]12CC[C@H](O[C@@H]3O[C@H](CO)[C@@H](O)[C@H](O)[C@H]3O)CC1CC[C@@H]1C2CC[C@]2(C)[C@@H](C3=CC(=O)OC3)CC[C@]12O (some centres undefined)	i
COC(=O)c1ccc(Cl)cc1NC(=O)N1Cc2ccccc2-n2cccc2C1C (centres undefined)	i
COCC1CN(C)CC12CCN(Cc1cccnc1)CC2 (centres undefined)	i
N#Cc1cn([C@@H]2O[C@H](CO)[C@H](O)[C@@H]2O)c2ncnc(N)c12	+
CC[C@H]1C[C@@H]2CC[C@@H](O2)[C@@H](C)C(=O)O[C@H](CC)C[C@H]2CC[C@H](O2)[C@H](C)C(=O)O[C@@H](C)C[C@@H]2CC[C@@H](O2)[C@@H](C)C(=O)O[C@H](CC)C[C@H]2CC[C@H](O2)[C@H](C)C(=O)O1	i
COc1ccc2c(c1OC)CN1CCc3cc4c(cc3C1C2)OCO4 (centres undefined)	u
CC(C)OC(=O)c1ccnc2cc(C(OCCN3CCCCC3)c3ccccc3Cl)sc12 (centres undefined)	u
NC(C(=O)O)c1cc(=O)[nH]o1 (centres undefined)	i

Of the compounds above, these contain four or more nitrogen atoms:
SMILES	Methyltransferases
COc1ccc(-c2cc([C@H]3CN4CC[C@H]3C[C@@H]4COC(=O)Nc3ccccc3)n(C)n2)cc1	u
Cc1cnc(N2CC3CCC(C2)N3CC(F)(F)F)c([N+](=O)[O-])c1	i
COCc1cn(C[C@H]2C[C@@H]3CCN2C[C@@H]3C(=O)NCc2ccco2)nn1	i
CN(C)c1ccc(C2c3cccn3-c3ccccc3CN2C(=O)NCc2ccccc2)cc1 (centres undefined)	i
Cn1nc(C2CCCCC2)cc1[C@H]1CN2CC[C@H]1C[C@@H]2CNC(=O)NCc1ccccc1	i
O=C(Nc1ccc(=O)n2c1[C@@H]1C[C@@H](CN(C(=O)NC3CCCCC3)C1)C2)c1ccco1	i
O=C([C@H]1CN2CCC1C[C@@H]2Cn1cc(CCO)nn1)N1CCOCC1 (some centres undefined)	i
O=C(Nc1ccccc1)Nc1ccc2n(c1=O)C[C@H]1C[C@@H]2CN(C(=O)c2ccccc2)C1	i
N#Cc1cncc(N2CC3CCC(C2)N3CC(F)(F)F)c1	i
CCCn1c(=O)c2[nH]c(C3CCCC3)nc2n(CCCOC(=O)c2ccc(S(=O)(=O)F)cc2)c1=O	i
C[C@@H]1CN(Cc2ccc(F)cc2)CCN1C(=O)COc1ccc(Cl)cc1NC(N)=O	i
O=C(NCc1ccc(F)cc1)[C@H]1CN2CCC1C[C@@H]2Cn1cc(CSc2ccccc2)nn1 (some centres undefined)	i
O=C(NCCN1CCC2(CC1)C(=O)NCN2c1cccc(F)c1)c1ccc(F)c(F)c1	u
CN(C)c1ccc(C2c3cccn3-c3ccccc3CN2C(=O)Nc2cc(F)ccc2F)cc1 (centres undefined)	i
N#Cc1cn([C@@H]2O[C@H](CO)[C@H](O)[C@@H]2O)c2ncnc(N)c12	+

Not all compounds are listed; the hit share may differ from the screen's.
